Sa growth inh: S. aureus growth inhibition at 42 and 30 °C, primary screen, LtaS inhibitor project, RN4220, two temperatures | actives 0.53% (n = 170,000) | OD600, 20 h, 42 °C; hits give low values | AID 720641, 2013 | relative growth, % (concentration not given with the values);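 active = growth at 42 °C up to 50% and 20 or more points under that at 30 °C, or under 10% at both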;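 note: 300 nL library stock went into each well; scaled to the means of positive and negative controls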
HCMV NEC inh: inhibitors of HCMV UL50-UL53 interaction, biochemical, HTRF | HCMV UL50-UL53 nuclear egress complex (human cytomegalovirus) | inhibition, % (no concentration beside the values) | actives 0.15% (n = 190,000) | normalized percent inhibition;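 active = both replicates at 50% or more, plus weaker picks with an unusually low signal ratio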;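 note: stock transfer was 100 nL into about 20 µL; 0% = negative control wells and 100% = wells with untagged competitor protein; inactives centre near -12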
GIV-Gai inh: inhibitors of GIV peptide binding to Galpha-i3, primary screen, biochemical, fluorescence polarization, FITC-GIV GBA peptide, rat Galphai3; Guanine nucleotide-binding protein G(i) subunit alpha-3 (Rattus norvegicus), P08753; 90 min; hits give low values; scaled: aluminum fluoride 0%, vehicle 100%; percent of control (FP), % (concentration not given with the values); actives 0.42% (n = 210,000);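 active = replicate mean at 85% of control or lower, very high polarization wells dropped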;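 note: wells of about 15 µL received 100 nL stock; the first replicate is given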
Target sequence (P08753 whole entry, looked up): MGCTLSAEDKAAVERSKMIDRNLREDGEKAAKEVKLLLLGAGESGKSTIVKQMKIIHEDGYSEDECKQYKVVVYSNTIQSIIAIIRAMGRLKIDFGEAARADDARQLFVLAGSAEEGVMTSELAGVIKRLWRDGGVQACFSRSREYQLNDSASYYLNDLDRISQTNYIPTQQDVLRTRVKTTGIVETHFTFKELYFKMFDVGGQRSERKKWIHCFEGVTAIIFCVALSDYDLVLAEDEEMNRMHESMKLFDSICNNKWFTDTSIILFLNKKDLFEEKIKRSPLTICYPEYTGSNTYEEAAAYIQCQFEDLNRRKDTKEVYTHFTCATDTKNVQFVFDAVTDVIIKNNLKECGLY
Sa growth inh second temp: further read-out of Sa growth inh, marked with its call; relative growth, %; measured here: growth at 30 °C;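 optical density after 20 h as mean of two plates; 100% = untreated growth and lower means inhibition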
* marks the source's active call; other numbers are inactive results; · = no result given; & = joins results of further samples.

SMILES | Sa growth inh | Sa growth inh second temp | HCMV NEC inh | GIV-Gai inh
Cc1noc2ncnc(N3CCC(c4ccccc4)C3)c12 (stereo unspecified) | · | · | -3.6 | 105.6
COc1ccc(-c2cc(C(F)(F)F)nc(SCC(=O)NCC(C)C)n2)cc1OC | 105.3 | 103.3 | -7.1 | 98.7
CCC(=O)Oc1ccc(/C=C/c2ccccc2)cc1OC | 89.6 | 81.5 | -2.9 | ·
CN(C)c1cc(-c2ccccc2)oc(=O)c1Cl | 86.3 | 85.9 | -56.8 | 105.5
Cc1cc(N2CCCCC2)nc2ccc(NC(=O)CCC(=O)N3CCC(Cc4ccccc4)CC3)cc12 | · | · | -31.4 | 106.6
Brc1ccc2c(c1)C1CC(c3ccccc3)=NN1C(c1ccco1)O2 (stereo unspecified) | 65.9 | 72.7 | -23.8 | 138.8
Cc1ccc(NC(=O)N(CCC(=O)O)Cc2ccccc2)cc1 | 96.4 | 87.1 | -37.7 | 104.0
O=C(CCn1c(=O)sc2cc(S(=O)(=O)N3CCCC3)ccc21)N1CCc2ccccc21 | · | · | 2.3 | 101.8
CC(=O)c1ccc(NC(=O)Cn2c(=O)n(Cc3ccco3)c(=O)c3sc4ccccc4c32)cc1 | 102.6 | 88.8 | -6.8 | 101.4
Cc1ccc(S(=O)(=O)NCC2CCC(C(=O)NCc3ccc(F)cc3)CC2)cc1 (stereo unspecified) | 98.1 | 85.0 | · | 108.3
CCNC(=O)COc1ccccc1-c1nc(-c2ccccc2)no1 | · | · | -13.8 | 97.8
CNS(=O)(=O)c1cc(-c2nnc(Nc3cc(C)ccc3C)c3ccccc23)ccc1C | 100.9 | 79.4 | -33.1 | 103.5
COc1cc(OC)cc(C(=O)Nc2cc(C)nn2-c2ccccc2)c1 | 102.6 | 85.8 | -29.7 | ·
O=C(O)C1=CCCN(CCON=C(c2ccccc2)c2ccccc2)C1 | · | · | -11.5&0.4 | 102.6
Cn1c(=O)cc(OCCCC(=O)O)c2ccccc21 | 95.0 | 93.2 | -9.3 | 99.5
CCN(CC)S(=O)(=O)c1cccc(-c2nnc(SCC#N)n2Cc2ccccc2)c1 | 88.8 | 81.9 | -19.9 | ·
Cc1cccc(-c2nn3c(=O)cc(CN4CCN(C(=O)/C=C/c5ccccc5)CC4)nc3s2)c1 | 84.6 | 90.8 | · | 102.8
CCCc1nnc(NC(=O)CSc2nnc(-c3cc4ccccc4o3)n2C)s1 | · | · | -4.3 | 104.4
Cc1cc(C)c(CSC(=N)N)c(C)c1CSC(=N)N | 87.7 | 104.1 | 1.9 | 104.4
O=C(CCSc1ccccc1)Nc1ccc(S(=O)(=O)NCc2ccco2)cc1 | 99.6 | 92.0 | -21.3 | ·
CCNC(=S)N1CCC(C(=O)c2ccc(Cl)cc2)CC1 | 112.7 | 87.5 | -1.9 | 108.5
Cc1ccccc1NS(=O)(=O)c1cc(-c2onc(C)c2C)ccc1C | 90.1 | 80.0 | -12.6 | 101.2
O=S(=O)(c1cccc2nsnc12)N1CCCc2ccccc21 | 79.5 | 90.7 | -8.3 | 101.4
O=C(OCCOc1ccccc1)c1cc2c(s1)CCC2 | 105.0 | 96.0 | -29.8 | ·
CSc1sc(C(=O)Nc2cccc(Cl)c2)c(-c2cccs2)c1C#N | 88.9 | 82.7 | -30.6 | 100.3
CCOc1ccccc1NC(=O)Nc1ccc(Cn2cnc(-c3nc(-c4ccc(Cl)cc4)no3)c2)cc1 | · | · | -22.1 | 102.9
Cc1cc(Cl)ccc1OCCCC(N)=O | 101.2 | 54.7 | 2.0 | 103.4
O=C(Nc1cccc(-c2noc(C3CC3)n2)c1)c1cncc(Br)c1 | · | · | -13.8 | 97.5
NC1CONC1=O (stereo unspecified) | · | · | -25.4&-12.7 | 98.5
CNC(=O)C1OC(C)(C(C)(C)C)OC1C(=O)NC (stereo unspecified) | 115.1 | 87.3 | · | 101.4
CCc1ccc(-c2cc(C(=O)NCc3ccncc3)c3ccccc3n2)cc1 | · | · | -24.2 | 104.1
Cc1cccc(OCCCC(=O)N2CCCCCC2)c1C | 102.0 | 100.0 | -5.7 | 108.1
COc1cc(C2C(C(=O)Nc3cccc(C)n3)=C(C)NC3=C2C(=O)CCC3)cc(OC)c1OC (stereo unspecified) | · | · | -24.1 | 100.5
COc1ccc(C2NC(C(=O)O)CS2)c(OC)c1 (stereo unspecified) | · | · | 4.8 | 107.3
C=CCSc1nnc(-c2ccc(C)cc2)o1 | 93.5 | 90.3 | · | 106.8
Cn1cc2c(n1)-c1cc(Cl)ccc1SC2 | 73.8 | 57.4 | -12.3 | 112.9
CCN(CC)S(=O)(=O)c1ccc(NC2c3ccccc3C(=O)N2Cc2ccccc2)cc1 (stereo unspecified) | 103.5 | 81.9 | · | 101.5
COc1ccc(NC(=O)C2CCCN2S(=O)(=O)c2ccc3c(c2)CCCC(=O)N3)cc1OC (stereo unspecified) | · | · | -18.2 | 107.5
O=S(=O)(c1cccc2nsnc12)N1CCN(c2nc3ccccc3nc2C(F)(F)F)CC1 | · | · | 6.9 | 92.9
Cc1cccc(C(C)C)c1NC(=O)COC(=O)Cc1ccsc1 | 86.1 | 95.0 | -5.2 | ·

At a glance, seven of the compounds above:
SMILES | Sa growth inh | Sa growth inh second temp | HCMV NEC inh | GIV-Gai inh
COc1ccc(C2NC(C(=O)O)CS2)c(OC)c1 (stereo unspecified) | · | · | 4.8 | 107.3
C=CCSc1nnc(-c2ccc(C)cc2)o1 | 93.5 | 90.3 | · | 106.8
Cn1cc2c(n1)-c1cc(Cl)ccc1SC2 | 73.8 | 57.4 | -12.3 | 112.9
CCN(CC)S(=O)(=O)c1ccc(NC2c3ccccc3C(=O)N2Cc2ccccc2)cc1 (stereo unspecified) | 103.5 | 81.9 | · | 101.5
COc1ccc(NC(=O)C2CCCN2S(=O)(=O)c2ccc3c(c2)CCCC(=O)N3)cc1OC (stereo unspecified) | · | · | -18.2 | 107.5
O=S(=O)(c1cccc2nsnc12)N1CCN(c2nc3ccccc3nc2C(F)(F)F)CC1 | · | · | 6.9 | 92.9
Cc1cccc(C(C)C)c1NC(=O)COC(=O)Cc1ccsc1 | 86.1 | 95.0 | -5.2 | ·

(next part)
SMILES | Sa growth inh | Sa growth inh second temp | HCMV NEC inh | GIV-Gai inh
O=C(CCS(=O)(=O)c1ccc(Cl)cc1)OCc1ccccc1 | 114.8 | 83.2 | -44.9 | ·
COc1ccc2nc(NC(=O)c3ccccc3C)sc2c1 | 100.7 | 83.2 | -13.1 | ·
CC(C)Oc1ccc(CNC(=O)CCn2c(=O)c3cccn3c3ccc(F)cc32)cc1 | 142.3 | 74.3 | -1.5 | 97.5
COC(=O)c1ccc(CSc2nnc(SCc3ccc(C(=O)OC)o3)s2)o1 | 104.7 | 95.8 | -8.8 | ·
Cc1ccc(NC(=O)[C@H]2O[C@@H]3OC(C)(C)O[C@@H]3[C@H]3OC(C)(C)O[C@H]32)cc1F | 113.9 | 95.7 | -2.4 | 103.6
CCCNC(=O)CSc1nc(-c2ccccc2)cc(C(F)(F)F)n1 | 97.3 | 94.7 | 0.6 | 95.7
CCN(CC)c1ccc(N=Cc2ccc(O)cc2)cc1 | 107.8 | 25.5 | · | 106.3
COc1cc(/C=N/n2cc(-c3ccccc3)[nH]c2=S)cc(OC)c1OC(C)=O | 87.7 | 92.4 | 3.9 | ·
COc1cc(/C=C2\C(=O)NC(=O)N(Cc3ccc(F)cc3)C2=O)cc(OC)c1OC | · | · | -11.3 | 104.0
Cc1nc(-c2cccc(NC(=O)c3cncc(Br)c3)c2)no1 | · | · | -7.9 | 102.5
O=S(=O)(c1ccc2nc3c(nc2c1)-c1cccc2cccc-3c12)N1CCOCC1 | 102.0 | 92.1 | -20.2 | ·
COc1cc(Cl)c(NC(=O)c2cc(-c3cccnc3)on2)c(OC)c1 | · | · | 0.7 | 102.4
O=C(O)CC(NC(=O)Cc1cccc2ccccc12)C(=O)O (stereo unspecified) | 106.5 | 74.4 | -6.1 | 105.0
CN(C)CCNCc1ccc(-c2cc(Cl)cc(Cl)c2)o1 | · | · | -21.2 | 105.6
CN(C)c1ccc(CNC(=O)CN2CCSc3ccc(S(=O)(=O)N(C)C)cc32)cc1 | 93.8 | 93.3 | · | 102.2
CCOC(=O)C1CCCN(C(=O)Cn2ncc3c([nH]c4ccccc43)c2=O)C1 (stereo unspecified) | 138.7 | 86.5 | · | 104.4
Cc1ccccc1NC(=O)Nc1ccc(-n2ncnn2)cc1 | 122.3 | 102.5 | -1.8 | 104.8
O=C(CCN1C(=O)C2C3C=CC(C3)C2C1=O)N1CCCCC1 (stereo unspecified) | 99.0 | 79.0 | · | 98.9
Cc1cc2c(cc1C)N(CC(=O)NC1CCc3ccccc31)C(=O)C1CCCC1=N2 (stereo unspecified) | · | · | -17.7 | 109.5
CC(c1ccccc1)N1CCn2c(nc3cc(NC(=O)c4cccc(Br)c4)ccc32)C1 (stereo unspecified) | 95.9 | 84.4 | · | 105.5

Reprinted from the part before: two compounds, then new ones.
SMILES | Sa growth inh | Sa growth inh second temp | HCMV NEC inh | GIV-Gai inh
Cc1cc2c(cc1C)N(CC(=O)NC1CCc3ccccc31)C(=O)C1CCCC1=N2 (stereo unspecified) | · | · | -17.7 | 109.5
CC(c1ccccc1)N1CCn2c(nc3cc(NC(=O)c4cccc(Br)c4)ccc32)C1 (stereo unspecified) | 95.9 | 84.4 | · | 105.5
Cc1[nH]c(C)c(S(=O)(=O)NCCC(=O)Nc2nccs2)c1C(=O)N1CCCC1 | · | · | -30.8 | 102.0
Nc1ccc(-c2cn3ccccc3n2)cc1 | 96.0 | 85.0 | 0.5 | ·
CCOC(=O)c1ccc(SC)cc1OC | 83.8 | 104.1 | -5.9 | ·
COc1ccc(/C=N/S(=O)(=O)c2ccccc2)cc1OC | 86.8 | 84.0 | -8.5 | ·
CC(C)(C)OC(=O)N1CC=C2C(C#N)=C(N)C(C#N)(C#N)C(c3ccc4c(c3)OCO4)C2C1 (stereo unspecified) | 91.7 | 67.9 | -5.5 | 183.1
CC(=O)N1CCN(C(=O)c2cc(C)nc3ccccc23)CC1 | 69.6 | 88.0 | -26.0 | ·
COc1ccc(-n2c(=O)c3sc4ccccc4c3n(Cc3ccccc3C)c2=O)cc1OC | 110.5 | 82.7 | -29.9 | 101.9
COc1ccc(N(C(=O)c2ccccc2OC(C)=O)C(C)C2CC2)cc1 (stereo unspecified) | 112.0 | 89.9 | -11.2 | ·
Cc1ccccc1N1CC(C(=O)Nc2ccc(S(N)(=O)=O)cc2)CC1=O (stereo unspecified) | 117.8 | 89.6 | 1.2 | 100.0
COc1ccc(OCCBr)cc1 | 92.5 | 86.0 | -16.0 | ·
COC(=O)c1ccc(NC(=O)CCS(=O)(=O)c2ccc(Br)s2)cc1 | 102.5 | 86.0 | -11.3 | 110.5
CCN(C(=O)CSc1nc(-c2ccccc2)nc2cc(=O)[nH]n12)c1cccc(C)c1 | · | · | -27.7 | 97.7
CCOC(=O)c1c(S(=O)(=O)NCCN2CCc3ccccc3C2)c(C)n(C)c1C | · | · | -15.4 | 108.4
CC(C)CC1=NC(C(F)(F)F)(C(F)(F)F)N=C(N2CCCCC2)O1 | 92.8 | 91.5 | · | 96.8
CCn1nnc2cc(C(=O)Nc3cc(C)ccc3C)ccc21 | 103.7 | 88.7 | · | 102.2
Cc1ccc(CNc2ccc(-c3nc(C(C)C)no3)cc2[N+](=O)[O-])cc1 | 95.2 | 83.3 | -27.6 | 100.1
Cc1ccc(N2CCN(C(=O)c3nn(C)c4c3CS(=O)(=O)c3ccccc3-4)CC2C)cc1 (stereo unspecified) | 111.4 | 89.0 | -14.1 | 100.8
C=CCNc1c2c(nc3cc(-c4cc(OC)cc(OC)c4)nn13)CCC2 | 110.7 | 93.2 | -10.3 | 100.5
CC1CCN(C(=O)COC(=O)CCN2C(=O)S/C(=C\c3cccs3)C2=O)CC1 | 90.6 | 84.9 | -108.6 | ·
O=[N+]([O-])c1cc2c3c(c1)C1C=CCC1C(c1ccccc1)N3CC1CC=CC21 (stereo unspecified) | · | · | -20.3 | 103.6
CCn1cc(C(=O)OCC(=O)Nc2ccc(C)c(Cl)c2)c(=O)c2ccc(C)nc21 | 107.5 | 92.1 | 2.1 | 104.4
Cc1ccc(-c2cc(C(=O)N3CCN(c4ccc(N5CCOCC5)nn4)CC3)[nH]n2)cc1C | · | · | -16.8 | 104.1
Oc1ccc(C2NCCc3c2[nH]c2ccc(Cl)cc32)cc1 (stereo unspecified) | · | · | -42.5 | 103.0
FC(F)(F)c1cccc(-n2c(-c3ccco3)n[nH]c2=S)c1 | 79.9 | 86.8 | -19.3 | 107.2
CCc1ccc(C(=O)/C=C/Nc2ccc(C)cc2O)cc1 | 106.1 | 106.7 | · | 117.5
COc1ccc(CNC(=O)NC(C)(C)C)cc1 | 108.1 | 89.3 | 3.0 | ·

High-throughput results as filed in PubChem.

Hits appear at their usual frequency; 0.79% or so of the library scored in one or more.
